Source: PubChem (Johns Hopkins Ion Channel Center)
KCNQ2 block = KCNQ2 potassium channel inhibitors, primary screen, cell-based, CHO-K1, FluxOR thallium flux, B-score (AID 2156); 310,000 tested, 1.1% active; B-score at 10 µM; 20 min; stronger effect = lower value; only compounds with negative scores are shown here; some inactives read as strong as hits;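 active = fluorescence ratio B-score at most minus 3 library SDs, with starting brightness B-score within 2 library SDs, cut at about -5.5 in these data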
Target sequence (O88943 whole entry, looked up): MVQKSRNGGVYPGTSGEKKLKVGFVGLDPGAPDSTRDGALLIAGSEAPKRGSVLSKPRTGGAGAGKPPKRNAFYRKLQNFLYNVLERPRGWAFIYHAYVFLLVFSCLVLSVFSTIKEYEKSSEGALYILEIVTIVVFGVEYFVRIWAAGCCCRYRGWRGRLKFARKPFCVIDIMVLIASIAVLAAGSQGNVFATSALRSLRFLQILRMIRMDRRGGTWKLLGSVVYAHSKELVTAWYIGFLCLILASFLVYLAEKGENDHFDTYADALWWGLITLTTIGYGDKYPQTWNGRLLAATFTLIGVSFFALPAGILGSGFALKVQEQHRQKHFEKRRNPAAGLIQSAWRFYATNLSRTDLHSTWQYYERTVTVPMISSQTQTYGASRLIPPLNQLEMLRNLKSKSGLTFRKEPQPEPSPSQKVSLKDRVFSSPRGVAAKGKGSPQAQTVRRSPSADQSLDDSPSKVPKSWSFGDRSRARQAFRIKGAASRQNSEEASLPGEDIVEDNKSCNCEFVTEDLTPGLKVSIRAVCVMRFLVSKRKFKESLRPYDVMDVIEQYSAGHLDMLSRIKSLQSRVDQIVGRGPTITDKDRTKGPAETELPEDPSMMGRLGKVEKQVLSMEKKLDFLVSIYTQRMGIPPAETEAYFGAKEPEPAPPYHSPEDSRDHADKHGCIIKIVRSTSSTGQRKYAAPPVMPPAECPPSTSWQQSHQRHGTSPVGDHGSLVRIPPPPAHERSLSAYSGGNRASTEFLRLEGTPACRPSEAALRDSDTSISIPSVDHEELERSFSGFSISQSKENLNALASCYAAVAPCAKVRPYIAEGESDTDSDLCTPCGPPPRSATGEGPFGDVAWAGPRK
KCNQ2 block baseline = second read-out of KCNQ2 block, no call of its own (marks repeat the call); B-score; measured here: initial fluorescence intensity artifact check;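 brightness before thallium and not channel activity; 0 = typical well and far values either way flag optical interference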
Starred values were filed as active, the others as inactive; i = inactive.

SMILES	KCNQ2 block	KCNQ2 block baseline
CCOc1cccc(C(=O)Nc2ccccc2OC(F)F)c1	i	3.2
CS(=O)(=O)N(CC(=O)N/N=C/c1ccc(OCC(=O)N2CCOCC2)cc1)c1ccccc1Cl	i	0.15
CCOC(=O)/C(C#N)=N/Nc1ccc(S(=O)(=O)N2CCc3ccccc32)cc1	i	-0.07
O=C(CN1C(=O)CC(c2ccco2)Sc2ccccc21)NC1CCCCC1 (configuration not stated)	i	2
Fc1ccccc1NC(=S)Nn1cnnc1	i	-0.95
Cc1ccc(C)c(Nc2cc(C)nc(-c3ccccc3O)n2)c1	i	0.19
COc1ccc(CC(=O)NNc2ncnc3c2cnn3Cc2ccccc2)cc1OC	i	-0.09
CCc1nn(-c2ccccc2)c(=S)c2ccccc12	i	1.6
O=C(c1ccc([N+](=O)[O-])cc1)N1CCSC1c1ccc(Cl)cc1 (configuration not stated)	i	-0.59
CC(C)c1ccc(NC(=O)Cn2nnc(C(=O)NCc3ccc4c(c3)OCO4)c2N)cc1	i	-0.07
CN(C)CCCN(C(=O)CCc1ccccc1)c1nc2ccc(F)cc2s1	i	0.6
O=C(CCCNS(=O)(=O)c1cccc2nsnc12)N1CCCCC1	i	1.6

Two of the compounds above, with the structure last:
| KCNQ2 block | KCNQ2 block baseline | Molecule |
| --- | --- | --- |
| i | -0.95 | Fc1ccccc1NC(=S)Nn1cnnc1 |
| i | 0.19 | Cc1ccc(C)c(Nc2cc(C)nc(-c3ccccc3O)n2)c1 |

7 compounds picked at random from those above:
SMILES	KCNQ2 block	KCNQ2 block baseline
CN(C)CCCN(C(=O)CCc1ccccc1)c1nc2ccc(F)cc2s1	i	0.6
Cc1ccc(C)c(Nc2cc(C)nc(-c3ccccc3O)n2)c1	i	0.19
CCOC(=O)/C(C#N)=N/Nc1ccc(S(=O)(=O)N2CCc3ccccc32)cc1	i	-0.07
COc1ccc(CC(=O)NNc2ncnc3c2cnn3Cc2ccccc2)cc1OC	i	-0.09
O=C(CCCNS(=O)(=O)c1cccc2nsnc12)N1CCCCC1	i	1.6
O=C(c1ccc([N+](=O)[O-])cc1)N1CCSC1c1ccc(Cl)cc1 (configuration not stated)	i	-0.59
CC(C)c1ccc(NC(=O)Cn2nnc(C(=O)NCc3ccc4c(c3)OCO4)c2N)cc1	i	-0.07

New compounds follow
SMILES	KCNQ2 block	KCNQ2 block baseline
Cc1n[nH]c(=O)n1-c1ccc(C(C)(C)C)cc1	i	0.05
Cc1cc(Cl)ccc1NC(=O)COC(=O)c1cc([N+](=O)[O-])ccc1N1CCOCC1	i	3.3
CCN(C(=O)CSc1nnc(Cn2nnc3ccccc32)o1)c1nc(-c2ccccc2)cs1	i	-1.4
OCCN(Cc1ccccc1)C(=S)Nc1ccc(F)cc1	i	2.5
O=C(NCc1ccccc1Cl)C1CCCN1C(=O)Nc1ccccc1 (configuration not stated)	i	0.92
Cc1cccc(NC(=S)Nc2ccc(Oc3ccccc3)cc2)n1	i	-0.81
Cc1cc(OC(C)C(=O)NCCCn2ccnc2)c2c(C)c(C)c(=O)oc2c1 (configuration not stated)	i	0.8
CCOC(=O)c1cc(-c2ccccc2)sc1NC(=O)CN1C(=O)c2ccccc2C1=O	i	8.2
Cc1cc(C)cc(OCc2nnc(SCC(=O)NC3CC3)n2C)c1	i	2.8
COc1ccc(-c2nc(C#N)c(N3CCC(C(N)=O)CC3)o2)cc1	i	0.17
CN(C(=S)Nc1ccccc1F)C1(c2ccccc2Cl)CCCCC1=O (configuration not stated)	i	-0.44
COc1ccc(-c2ncc3ccccn23)cc1	i	-1.4
COc1ccc(-n2c(=O)c3ccccc3n(Cc3ccccc3F)c2=O)cc1OC	i	-1.8
CCCCNCC(=O)Nc1sc(C)c(C)c1C(=O)OCC	i	-1.2
O=C(CN1CCN(c2cccc(C(F)(F)F)c2)CC1)Nc1cccc(C(F)(F)F)c1	i	1.1
CCC1Oc2ccc(Cl)cc2N(CC(=O)O)C1=O (configuration not stated)	i	0.06
COc1cc(OC)nc(Oc2ccccc2C(=O)Oc2ccccc2Cl)n1	i	1.3
NC(=O)N/N=C/c1ccc(-n2nncc2-c2ccc(Cl)cc2)cc1	i	-0.03
Cc1ccc(S(=O)(=O)N2CCN(S(C)(=O)=O)C2c2ccccc2)cc1 (configuration not stated)	i	0.49
CC(OC(=O)/C=C/c1ccccc1)C(=O)Nc1cccc(C#N)c1 (configuration not stated)	i	-2.5
CCN(CC(=O)NCc1ccc(Cl)cc1)C(=O)CCOc1ccccc1C	i	-1.1
COc1cc([N+](=O)[O-])ccc1NC(=O)Nc1cnccn1	i	-1.7
Cn1c2ccccc2c(=O)c2c(=O)n(Cc3ccco3)c(-c3ccc(C(C)(C)C)cc3)nc21	i	-0.01
CSc1nn2c(C(F)(F)F)cc(C(F)(F)F)nc2c1C(N)=O	i	-1.6
Cc1noc(C)c1S(=O)(=O)Nc1cc(C(F)(F)F)ccc1N1CCOCC1	i	-0.61
CCOC(=O)C1C(C(=O)Nc2cccc(C(F)(F)F)c2)C1C(=O)NC(C)C (configuration not stated)	i	0.38
COc1ccc(C2CC(c3ccccc3OC(C)=O)=NN2C(=O)/C=C/c2ccccc2)cc1 (configuration not stated)	i	1
COc1ccccc1S(=O)Cc1ccc(C(=O)NCCc2ccc(Cl)cc2)o1 (configuration not stated)	i	0.01
CCC(CC)c1nnc(NC(=O)C2COc3ccccc3O2)s1 (configuration not stated)	i	1.6
COc1ccc(-n2c(C)cc(=O)[nH]c2=O)cc1	i	1.4
CCS(=O)(=O)N1CCC(NC(=O)C2CCCCC2)CC1	i	-0.91
O=C(N=C1SC2CS(=O)(=O)CC2N1c1ccccc1)C1CC1 (configuration not stated)	i	1.5
Cc1ccc(C(=O)N2CCN(S(=O)(=O)c3ccc(Br)cc3)CC2)o1	i	-0.69
COc1ccc(NC(=O)/C(C#N)=C/c2ccc3c(c2)n(C)c(=O)n3C)cc1	i	0.35
Cc1cc(C(=O)CSc2nnc(-c3ccc4c(c3)OCO4)o2)c(C)n1-c1ccc(F)cc1	i	-0.1
Cc1ccccc1C(=O)NCC(c1ccco1)N1CCc2ccccc21 (configuration not stated)	i	0.61
O=C1CC(C(=O)NCCc2ccccc2)SC(=Nc2ccccc2)N1 (configuration not stated)	i	0.32
COc1ccccc1Nc1nn2c(=O)c3ccc(C(=O)N4CCCC(C)C4)cc3nc2s1 (configuration not stated)	i	-0.8
Cc1cccc(C(=O)N2CCN(c3ccc([N+](=O)[O-])c(NCc4ccco4)c3)CC2)c1	i	0.25
CN(Cc1cccc(F)c1)C(=O)c1ccc(NS(=O)(=O)c2ccc3[nH]c(=O)[nH]c3c2)cc1	i	3.7
COc1ccc2cc(C(=O)C3CCCN(C(=O)c4cccnc4)C3)ccc2c1 (configuration not stated)	i	0.56
Cc1nc(-c2ccc(Cl)cc2)sc1C1(C)CC(c2ccc(F)cc2)=NO1 (configuration not stated)	i	-3.8
Cc1c(C=O)c2ccccn2c1C(=O)c1cccs1	i	-0.08
COc1ccc(C(=O)NC2CCCCC2)cc1OC1CCN(C(C)C)CC1	i	-2.2
O=C(O)CN1C(=O)CC(Cc2ccccc2)C1=O (configuration not stated)	i	1.3
COC(=O)c1ccc(-n2nnnc2SCC(=O)Nc2ccccc2OC)cc1	i	0.03
CCc1ccccc1NC(=O)N1CCc2ccccc21	i	0.03
O=C(N/N=C/c1cccc(Oc2ccccc2)c1)c1cccc(Br)c1	i	0.21
COCCn1nnnc1C(c1ccc(OC)c(OC)c1)N1CCN(c2nc3ccccc3s2)CC1 (configuration not stated)	i	-0.98
Clc1ccc(-c2nnc(-c3ccco3)nc2N2CCCCC2)cc1	i	1.5
OC(c1ccc(F)cc1)(C1CCCCC1)C(CN1CCOCC1)c1ccccc1 (configuration not stated)	-5.7*	-1.1*
O=C(O)C1CSC(CCc2ccccc2)N1 (configuration not stated)	i	-1.4
COc1ccc(CN2CCC(N(CCc3ccccc3)Cc3ccccc3)CC2)c(OC)c1	i	-1
COc1ccc(Cc2nc(C(=O)NCc3ccccc3OC)cs2)cc1	i	0.53
COc1ccc(C(=O)N2CCN(c3cccc(Cl)c3)CC2)c(OC)c1	i	1.6
CC(C)CSc1ncc(-c2cccc(C(F)(F)F)c2)cn1	i	0.58
CCOC(=O)CNC(=O)CSc1nnc(-c2ccco2)n1Cc1ccco1	i	1
CCCCSC1=C(C#N)C(c2ccccc2C)C(C(=O)OCC)C(=O)N1 (configuration not stated)	i	1.6
Cc1ccc(S(=O)(=O)NCC2(c3ccccc3)CCOCC2)cc1	i	-0.05
Cc1cccn2c(=O)nc(SCC(=O)NC3CCCC3)nc12	i	0.43

Continuation:
SMILES	KCNQ2 block	KCNQ2 block baseline
COc1ccc(C(=O)C2CCCN(Cc3ccc4nonc4c3)C2)c(C)c1 (configuration not stated)	i	-0.41
CCn1c(/C=C/c2c[nH]c3ccccc23)nc2ccccc2c1=O	i	0.98
COc1ccc(-c2noc(CSc3ccccc3)n2)cc1OC	i	0.01
Cc1c(/C=N/NC(=O)CNc2ccccc2)c2ccccn2c1C(=O)c1ccccc1	i	0.52
O=C(O)CCc1ccc(S(=O)(=O)Nc2ccc(OCc3ccccc3)cc2)cc1	i	-2.6
O=C(CSC1CN(C(c2ccccc2)c2ccccc2)C1)N/N=C/c1ccc(Cl)cc1Cl	i	-0.04
O=C1/C(=C/c2cccs2)SC(=S)N1C1CCS(=O)(=O)C1 (configuration not stated)	i	-0.76
O=C(O)Cc1ccc2c(c1)N(S(=O)(=O)c1cccs1)CC(C(=O)O)O2 (configuration not stated)	i	-1
COc1ccc(-c2ccc([C@H]3[C@H]4C=CC[C@@H](C)[C@@H]4C(=O)N3Cc3ccccc3)c(F)c2)cc1OC	i	0.75
CCc1nc(SCC(=O)N2c3ccccc3Sc3ccccc32)c2ccccc2n1	i	-0.57
O=C(CN1CCOCC1)Nc1cccc(S(=O)(=O)N2CCCCCC2)c1	i	1.2
O=C(C1=C[C@H](c2ccc(Br)cc2)C[C@H](OCc2ccc(CO)cc2)O1)N1CCN(Cc2ccc3c(c2)OCO3)CC1	i	-1.2
C#CCN(C(=O)c1cc(COc2ccc(C)c(C)c2)on1)C1CCCCC1	i	-0.66
COC(=O)c1ccnc(SCC(=O)c2ccccc2)c1	i	-1.3
O=C(c1ccco1)N(CCCN1CCOCC1)c1nc(-c2ccc(Cl)cc2)cs1	i	-0.04
Cc1ccccc1C(=O)OC1OC(=O)C(Cl)=C1Nc1ccc(C(=O)O)cc1 (configuration not stated)	i	-0.1
COc1ccc(NC2CCCN(C(=O)CCN3Cc4ccccc4C3=O)C2)cc1 (configuration not stated)	i	0.18
Cc1nonc1NC(=O)CSc1nnc(-c2ccoc2C)n1-c1cccc(Cl)c1	i	-1.9
CCN(CC)c1ccc(S(=O)(=O)N2CCOCC2)cc1NC(=O)CSC(=S)N1CCCC1	i	3.3
Cc1cc(C)n(-c2nc3ccccc3n3nnnc23)n1	i	-0.38
Cc1ccc(/C=N/NC(=O)c2csc(C)c2)o1	i	-0.01
CCc1cc2c(=O)c(-c3cnn(-c4ccccc4)c3)c(C)oc2c(CN2CCCCC2)c1O	i	-1.9
O=C(O)c1ccc(NC(=O)c2ccccc2Br)c(NC(=O)c2ccccc2Br)c1	i	1.8
CCOC(=O)c1c(-c2ccc(Cl)cc2)cn2ccccc12	i	-1.2
CCCCn1c(N)c(N(CCOC)C(=O)C2CCN(S(=O)(=O)c3ccc(C)cc3)CC2)c(=O)[nH]c1=O	i	-2.4
O=C1c2ccccc2C(O)(Cc2ccccc2)N1c1ccc2c(c1)OCO2 (configuration not stated)	i	-0.66
CC(C)C(=O)Nc1c(-c2cccs2)c(=O)c2ccccc2n1C	i	-0.39
CCOC(=O)C1CCN(C(=O)/C=C/c2ccccc2OC)CC1	i	1.1
COc1ccc(OC)c(NC(=O)CCN2CCN(C/C=C/c3ccccc3)CC2)c1	i	0.04
CC(=O)NS(=O)(=O)c1ccc(NC(=O)c2ccccn2)cc1	i	-0.9
COc1cc(OC)cc(C(=O)N2CCC(C(=O)NCCc3ccccc3)CC2)c1	i	1.9
CCOC(=O)c1cc(=O)[nH]c2ccccc12	i	0.22
COC(=O)c1c(C)noc1-c1ccc(Cl)cc1	i	0.91
COc1ccc(C2NC(=S)NC3=C2CCc2cc(OC)ccc23)cc1 (configuration not stated)	i	0.53
C=CCSc1nnc(NC(=O)c2cccc(S(=O)(=O)N(C)c3ccccc3)c2)s1	i	1.8
Cc1cccc(OCC(=O)Nc2ccccc2C(=O)N2CCOCC2)c1	i	0.26

Some values from the results shown.
Under KCNQ2 block baseline, `COc1ccc(-c2ncc3ccccn23)cc1` has the entry -1.4
Under KCNQ2 block baseline, `CC(C)c1ccc(NC(=O)Cn2nnc(C(=O)NCc3ccc4c(c3)OCO4)c2N)cc1` has the entry -0.07
Under KCNQ2 block baseline, `CCCCSC1=C(C#N)C(c2ccccc2C)C(C(=O)OCC)C(=O)N1` (configuration not stated) has the entry 1.6
Under KCNQ2 block baseline, `Cc1ccc(S(=O)(=O)N2CCN(S(C)(=O)=O)C2c2ccccc2)cc1` (configuration not stated) has the entry 0.49
Under KCNQ2 block baseline, `C=CCSc1nnc(NC(=O)c2cccc(S(=O)(=O)N(C)c3ccccc3)c2)s1` has the entry 1.8

Next section
SMILES	KCNQ2 block	KCNQ2 block baseline
O=C(N/N=C/c1c[nH]c2ccccc12)c1ccccc1	i	-0.14
COc1ccc(CCNC(=O)COC(=O)CCC(=O)c2ccc(F)cc2)cc1	i	0.92
Cc1cccc(N2CCN(C(=O)c3cn(C)c(=O)c4c3c3ccccc3n4C)CC2)c1C	i	0.25
O=C(c1cc(-c2ccccc2)nc2ccccc12)N1CCN(c2ccccc2O)CC1	i	-0.54
O=C(COc1ccc(Cl)cc1)Nc1nnc(C2=COCCO2)o1	i	3
CC1(C)CC(=O)C=C(OC(=O)c2ccc(Cl)cc2)C1	i	-0.05
CCOC(=O)c1c(NC(NC(=O)C(C)C)C(Cl)(Cl)Cl)sc2c1CCC2 (configuration not stated)	i	-0.31

Some of the compounds tested; the hit share may differ from the screen's.
